Screening data deposited in PubChem BioAssay by National Center for Advancing Translational Sciences (NCATS).
GFP derepression – derepresses silenced GFP locus in mouse C127i cells; Potency, µM (series often up to 46.1 µM), inactives show at the highest dose GFP derepression (activation); mouse C127i GFP locus derepression, cytometry, 30 h; 0.09% of 68,000 active; further: % of control where 0% means no effect
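Locus derepression in mouse mammary C127i cells whose integrated CMV-GFP reporter is normally silent; GFP expression after 30 h compound treatment was quantified by counting fluorescent cells.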
Rhodamine autofl – compound fluoresces in the rhodamine spectral region | 0.05% of 59,000 active | Rhodamine-region fluorescence, 547/598 nm, Tris buffer; hits give high values | max dye-equivalent concentration, M; in the data active means max dye-equivalent concentration above about 11 nM; inconclusive means between about 1.1 nM and that limit
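Compounds in 100 mM Tris buffer, pH 8.0, were incubated 15 min at room temperature, then read at 547 nm excitation and 598 nm emission. Fluorescence was normalized against a per-plate six-point rhodamine standard curve as dye-equivalent concentration.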
UbGFP stabilizer – proteasome inhibitors stabilizing ubiquitin-GFP reporter; Potency, µM (highest dose often 45.9 µM), for the others: at the highest dose activation (GFP accumulation), hits mostly activators; Ubiquitin-GFP reporter cells, proteasome inhibition, GFP fluorescence; response scale: untreated = 0%, 10 µM MG-132 = 100%; 67,000 tested, under 10 active; AID 526; active means well fitted activation curve with a large enough effect, not every such curve was filed as active; inconclusive means small, poorly fitted or top-dose-only effect, or another doubt; inactive means no such curve, though single readings can be large or run the other way; further: potency means the concentration at half of the fitted maximal effect
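Proteasome blockade was scored as a rise in GFP-expressing U2OS cells carrying a ubiquitin(G76V)-GFP construct, imaged after 4 hr compound treatment at 37 °C across a 46 uM–2.9 nM series.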
Texas Red fluor – compound fluoresces in the Texas Red spectral region | max dye-equivalent concentration, M | Compound fluorescence, Texas Red channel, 547/618 nm; hits give high values | 0.06% of 59,000 active | AID 587; in the data active means max dye-equivalent concentration above about 10 nM; inconclusive means between about 1.1 nM and that limit
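qHTS profiling of intrinsic compound fluorescence; 100 mM Tris pH 8.0; 15 min RT; ex 547 / em 618 nm; response expressed as Texas Red dye-equivalent concentration from six-point plate standard.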
Fluorescein autfl – compound fluoresces in the fluorescein spectral region; Compound autofluorescence, 480/540 nm, fluorescein-equivalent; hits give high values; max fluorescein-equivalent concentration, M; 0.91% of 59,000 active; in the data active means max fluorescein-equivalent concentration above about 10 nM; inconclusive means between about 1.1 nM and that limit
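Read-out is intrinsic compound fluorescence at 480/540 nm (excitation/emission), expressed as dye-equivalent concentration using a fluorescein standard series run on every plate. Compounds sat 15 min at room temperature in 100 mM Tris, pH 8.0.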
HBB splicing – modulators of hemoglobin beta chain splicing; HBB splicing reporter cell assay, activation; EGFP reporter with mutant IVS2-654 intron; response scale: normalised to 500 nM splice-correcting PNA; Potency, µM (series often up to 46.1 µM), inactives show at the highest dose activation, usual class: activators; 0.06% of 65,000 active; further: potency means the concentration at half of the fitted maximal effect; 0% is about no effect
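Compounds were applied for 2 days to HeLa EGFP-654 cells, 500/well in Optimem with 2% FCS. The reporter's EGFP is disrupted by mis-splicing of beta-globin intron IVS2-654. Readout: summed well GFP fluorescence from 488 nm laser scanning; reference was 500 nM antisense […] 654 PNA.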
The depositor's hits bear a star; i = inactive; ? = inconclusive; . = no result given; & = joins results of further samples; [ ] = dose if it differs, or a comment. Unless noted, the call rests on the fitted dose curve; in most records, active means well fitted curve in the direction sought with a large enough effect; inconclusive means small, poorly fitted or top-dose-only effect, or another doubt; inactive means no such curve, though single readings can be large; an effect the other way counts as inactive or inconclusive.

1) Cc1ccc(-c2cc(-c3ccccc3Cl)[nH]n2)c(O)c1
2) CN1[C@@H]2CC(OC(=O)[C@H](CO)c3ccccc3)C[C@@H]1[C@H]1O[C@H]12 (stereo not given in full)
3) CC(C)OC(=O)C(C)(C)Oc1ccc(C(=O)c2ccc(Cl)cc2)cc1
4) COC(=O)C1=C(C)NC(C)=C(C(=O)OC)C1c1ccccc1[N+](=O)[O-]
5) Cc1cccc(N2CSC3=C(C#N)C(c4ccc(C)o4)CC(=O)N3C2)c1 (stereo not given)
6) CN1[C@@H]2CC(OC(=O)[C@H](CO)c3ccccc3)C[C@H]1[C@@H]1O[C@@H]12 (stereo not given in full)
7) C[C@H](Cc1ccc(O)c(O)c1)[C@@H](C)Cc1ccc(O)c(O)c1
8) CCC(C)(C)C(=O)O[C@H]1C[C@@H](C)C=C2C=C[C@H](C)[C@H](CC[C@@H]3C[C@@H](O)CC(=O)O3)[C@H]21
assay / compound,1,2,3,4,5,6,7,8
UbGFP stabilizer,0%,1%,-9%[20.5 µM],0%,-4%,.,3%&2%,0%
GFP derepression,-2%,-2%,2%[20.6 µM],-2%[20.6 µM],0%,-6%[20.6 µM],-5%[9.22 µM],4%[9.22 µM]
HBB splicing,-0.8%[9.22 µM],.,1.0%[20.6 µM],-2.2%,-8.3%[0.369 µM],.,2.1%,.
Fluorescein autfl,.,.,?,?,?,i,?,?
Texas Red fluor,.,.,?,i,i,i,i,i
Rhodamine autofl,.,.,i,i,i,i,i,i

Exported as a markdown table: 2 of the compounds above
| item | SMILES | UbGFP stabilizer | GFP derepression | HBB splicing | Fluorescein autfl | Texas Red fluor | Rhodamine autofl |
| --- | --- | --- | --- | --- | --- | --- | --- |
| 5 | Cc1cccc(N2CSC3=C(C#N)C(c4ccc(C)o4)CC(=O)N3C2)c1 (stereo not given) | -4% | 0% | -8.3%[0.369 µM] | ? | i | i |
| 2 | CN1[C@@H]2CC(OC(=O)[C@H](CO)c3ccccc3)C[C@@H]1[C@H]1O[C@H]12 (stereo not given in full) | 1% | -2% | . | . | . | . |

More entries follow:
9) CC(C)(Sc1cc(C(C)(C)C)c(O)c(C(C)(C)C)c1)Sc1cc(C(C)(C)C)c(O)c(C(C)(C)C)c1
10) O=C(O)Cc1cc(I)c(Oc2ccc(O)c(I)c2)c(I)c1
11) O=C(O)[C@@H]1CCCC[C@@H]1C(=O)N1CCc2ccccc2C1CN1C(=O)c2ccccc2C1=O (stereo not given in full)
12) O=C(c1ccccc1)c1ccccc1
13) CC1=C(C(=O)O)N2C(=O)[C@@H](NC(=O)[C@@H](N)c3ccccc3)[C@@H]2SC1
14) Cc1oc(C(=O)Nc2ccc(O)cc2)cc1COc1ccccc1
15) CN1Cc2c(N)cccc2C(c2ccccc2)C1 (stereo not given)
assay / compound,9,10,11,12,13,14,15
UbGFP stabilizer,0%[20.5 µM],3%[20.5 µM],12%,.,-11%[20.5 µM],5%,.
GFP derepression,3%[20.6 µM],-4%&3%[20.6 µM],3%,.,-2%[20.6 µM],4%,-4%[20.6 µM]
HBB splicing,-0.4%[20.6 µM],1.8%[20.6 µM],1.7%,0.0%,-0.6%[20.6 µM],-2.5%,.
Fluorescein autfl,?,?,?,.,?,i,?
Texas Red fluor,i,i,i,.,i,i,i
Rhodamine autofl,i,i,i,.,i,i,i

Part of the list above in order of count of non-hydrogen atoms, ascending.
12) O=C(c1ccccc1)c1ccccc1
15) CN1Cc2c(N)cccc2C(c2ccccc2)C1 (stereo not given)
10) O=C(O)Cc1cc(I)c(Oc2ccc(O)c(I)c2)c(I)c1
14) Cc1oc(C(=O)Nc2ccc(O)cc2)cc1COc1ccccc1
4) COC(=O)C1=C(C)NC(C)=C(C(=O)OC)C1c1ccccc1[N+](=O)[O-]
5) Cc1cccc(N2CSC3=C(C#N)C(c4ccc(C)o4)CC(=O)N3C2)c1 (stereo not given)
8) CCC(C)(C)C(=O)O[C@H]1C[C@@H](C)C=C2C=C[C@H](C)[C@H](CC[C@@H]3C[C@@H](O)CC(=O)O3)[C@H]21
11) O=C(O)[C@@H]1CCCC[C@@H]1C(=O)N1CCc2ccccc2C1CN1C(=O)c2ccccc2C1=O (stereo not given in full)
9) CC(C)(Sc1cc(C(C)(C)C)c(O)c(C(C)(C)C)c1)Sc1cc(C(C)(C)C)c(O)c(C(C)(C)C)c1
assay / compound,12,15,10,14,4,5,8,11,9
UbGFP stabilizer,.,.,3%[20.5 µM],5%,0%,-4%,0%,12%,0%[20.5 µM]
GFP derepression,.,-4%[20.6 µM],-4%&3%[20.6 µM],4%,-2%[20.6 µM],0%,4%[9.22 µM],3%,3%[20.6 µM]
HBB splicing,0.0%,.,1.8%[20.6 µM],-2.5%,-2.2%,-8.3%[0.369 µM],.,1.7%,-0.4%[20.6 µM]
Fluorescein autfl,.,?,?,i,?,?,?,?,?
Texas Red fluor,.,i,i,i,i,i,i,i,i
Rhodamine autofl,.,i,i,i,i,i,i,i,i

An excerpt; the hit share may differ from the screen's.
